High-throughput results deposited in PubChem BioAssay by several laboratories.
Calb FLC – C. albicans growth inhibition with fluconazole, primary screen, CaCi-2 strain, Alamar Blue fluorescence; C. albicans CaCi-2 (fluconazole-resistant clinical isolate) + fluconazole, 48 h; AID 1979, 2009; growth inhibition, % (concentration not given with the values); 0.57% of 300,000 active;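 active means most replicates above 75%; inconclusive means exactly half above 75%; inactive means most below 75%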;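 further: all wells also contain fluconazole at 8 µg/ml as a sub-toxic cotreatment; 0% = median of DMSO wells and 100% = median of geldanamycin control wells; wells of about 8 µL received 7.5 nL stock; the first replicate is given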
RanGTP-Impb inh – inhibitors of RanGTP-importin-beta interaction, primary screen, biochemical, FRET, CFP-Ran, YFP-importin-beta, homogeneous | inhibition, % (test concentration not listed) | 1.1% of 300,000 active | AID 2216, 2009 | cell-free CFP-Ran/YFP-importin-beta FRET ratio;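 active means most replicates above 15%; inconclusive means exactly half above 15%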;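 further: 0% = DMSO wells and 100% = Ran loaded with GDP instead of GTP; wells of about 40 µL received 100 nL stock; the first replicate is given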
A1 inh – caspase 3/7 activation in MEF A1-2A-BIM cells, primary screen, A1 inhibitor project, cell-based, luminescence, HTS; Caspase-Glo 3/7 luminescence, 3 h; percent of clofoctol response, vehicle zero; caspase activation, % (concentration not given with the values); 0.066% of 330,000 active; AID 2462, 2010;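 active means over half of replicate activation scores above 10%, or exactly half above 10 with the replicate mean above 10; inconclusive means replicate mean below 10 yet half the replicates above 10; inactive means over half of replicates below 10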;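 further: wells of about 30 µL received 50 nL stock; many hits fall short of the cut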
rRNA inh HTS – reduced GFP signal of wild-type E. coli, primary screen, bacterial rRNA inhibitor project, GFP/RFP fluorescence, OD600, single point | E. coli WT GFP vs humanized-ribosome RFP mutants, 24 h; stronger effect = lower value; DMSO median 0, no signal -100 | GFP signal change (wild-type ribosome), % (concentration not given with the values) | 1.6% of 350,000 active | AID 720706, 2013;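 active means significant combined selectivity score with lowered wild-type GFP, culture density cut under 30%, mutant RFP and density less affected; inactive means any of these conditions unmet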; further: one replicate is shown; some compounds called inactive have numbers as strong as hits
Beta cell apopt – inhibitors of cytokine-induced beta cell apoptosis, primary screen, luminescence | INS-1E cytokine-induced death, ATP luminescence, 48 h; percent of positive-control rescue, neutral wells zero | 0.8% of 300,000 active | protection from apoptosis, % (concentration not given with the values) | AID 435005, 2010;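 active means all replicates at 75% or more, or half of them and the mean; inconclusive means half reach 75% but not the mean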;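 further: 0% = cytokine-treated negative control wells and 100% = positive control rescue; higher means more ATP so stronger rescue from cytokine killing; wells of about 40 µL received 100 nL stock; the first replicate is given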
T cruzi repl – inhibitors of intracellular T. cruzi growth, primary screen, luminescence, NIH3T3 host cells; T. cruzi beta-gal in NIH3T3, 90 h; inhibition, % (no concentration beside the values); 1.4% of 300,000 active; AID 1885, 2009;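 active means mean inhibition across valid replicates above about 55%, limit read from the data; inconclusive means mean below that limit but half or more replicates reach it; inactive means mean below it, under half of replicates reach it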;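 further: signal also drops with host cell toxicity which is not excluded here; 0% = plate median of DMSO wells and 100% = zero luminescence signal; higher percent means less beta-gal luminescence so fewer parasites; stock transfer was 50 nL into about 50 µL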
AF4-AF9 inh – inhibitors of AF4 peptide binding to AF9, primary screen, biochemical, AlphaScreen, biotin-AF4 peptide, FLAG-AF9, single point; 0.47% of 350,000 active; Protein AF-9 (Homo sapiens), P42568; inhibition, % at 10 µM;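 active means every replicate reaching a set inhibition limit, whatever the replicate mean, cut at about 25% in these data; inconclusive means mean inhibition reaches that limit but some replicates miss it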;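 further: 0% = plate neutral control median and 100% = total signal loss; the record names both 10 and 1 µM as test concentration; the first replicate is given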
Target sequence (P42568 whole entry, looked up): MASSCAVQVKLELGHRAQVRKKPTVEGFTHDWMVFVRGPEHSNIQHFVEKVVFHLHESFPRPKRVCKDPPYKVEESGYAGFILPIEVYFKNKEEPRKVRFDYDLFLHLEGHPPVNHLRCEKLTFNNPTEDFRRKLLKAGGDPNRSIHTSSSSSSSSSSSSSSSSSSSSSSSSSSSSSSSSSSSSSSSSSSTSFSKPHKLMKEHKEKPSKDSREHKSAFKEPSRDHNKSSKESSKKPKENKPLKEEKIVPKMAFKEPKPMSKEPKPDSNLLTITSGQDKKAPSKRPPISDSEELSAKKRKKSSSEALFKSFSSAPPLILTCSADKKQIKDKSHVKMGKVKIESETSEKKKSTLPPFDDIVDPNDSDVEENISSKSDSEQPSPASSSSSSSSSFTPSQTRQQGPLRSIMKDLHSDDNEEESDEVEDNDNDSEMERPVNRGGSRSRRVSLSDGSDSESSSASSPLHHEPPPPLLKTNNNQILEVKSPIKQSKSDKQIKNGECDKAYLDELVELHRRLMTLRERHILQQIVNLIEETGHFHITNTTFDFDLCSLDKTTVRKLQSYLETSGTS
Vif A3G – inhibitors of Vif binding to APOBEC3G peptide, primary screen, biochemical, TR-FRET, GST-Vif 1-94, biotin-A3G peptide, dose response retest (AID 1117319) | Virion infectivity factor (Human immunodeficiency virus type 1 group M subtype B (isolate … | inhibition, %, or IC50 in µM where a hit was titrated | 0.57% of 260,000 active | TR-FRET GST-Vif / biotin-A3G peptide binding; higher % means a stronger effect; test concentration not given here; strong numbers were not always called active;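 active means above the screen mean plus three standard deviations and confirmed in dose response; inconclusive means results disagree or hit not tested in dose response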;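 further: Vif residues 1-94 fused to GST binding biotinylated APOBEC3G peptide 110-148; 0% = full assay without inhibitor and 100% = GST in place of GST-Vif; retest series ran down from 100 µM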
rRNA inh HTS OD600 – second read-out of rRNA inh HTS, no call of its own (marks repeat the call); OD600 change, %; measured here: OD600 growth;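 optical density of the mix in the first replicate; 0 = DMSO median and -100 = no signal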
rRNA inh HTS RFP – recorded beside rRNA inh HTS, whose call it bears; RFP signal change, %; measured here: RFP humanized mutant strains;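 first replicate; 0 = DMSO median and -100 = no signal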
Starred values were filed as active, the others as inactive; ? = inconclusive; · = no result given. Some of the compounds tested, so the mix of outcomes need not match the whole.

molecule	rRNA inh HTS	T cruzi repl	RanGTP-Impb inh	Calb FLC	Vif A3G	A1 inh	Beta cell apopt	rRNA inh HTS OD600	AF4-AF9 inh	rRNA inh HTS RFP
CCc1nn2cc(C(=O)c3cc(Cl)ccc3O)cnc2c1-c1ccc(F)cc1	-18*	2	2.5	-1	·	0.3	4	4.0*	-18	1.0*
COCCN1C(=O)N[C@@H](c2ccc(Br)cc2)C(C(=O)OC)=C1C	·	1	0.7	2	?	1.2	-5	·	·	·
CC(C)(CO)NS(=O)(=O)c1ccc2c(c1)C(=O)c1cc(S(=O)(=O)NC(C)(C)CO)ccc1-2	3	-3	0.3	-6	-6%	1.4	0	-7	-11	-0.7
O=C(CCN1CCCCCC1)Nc1ccc2c(c1)OCCO2	17	-7	·	-30	-7%	1.0	2	16	-0.5	0.7
C=CCn1c(SCC(=O)NC(=O)c2cccc([N+](=O)[O-])c2)nnc1-c1ccccc1F	·	1	-7.0	-3	12%	1.1	-11	·	·	·
Cc1ccc(NC(=O)Cn2c(=O)cnc3ccccc32)cc1S(=O)(=O)N1CCOCC1	0	·	·	·	2%	3.1	1	-15	3.8	-0.2
COc1ccc(CC(=O)O/N=C(\N)c2ccc(OC)cc2)cc1	-19*	-1	-1.7	1	-1%	0.2	·	-15*	-3.7	3.2*
COc1cc(CC(=O)Nc2sc3c(c2C(N)=O)CCCC3)cc(OC)c1OC	3	5	-5.0	-6	·	-0.6	1	9	-3.7	-2.1
CN(Cc1cccs1)CC(O)COCc1ccco1 (stereo unspecified)	·	2	5.4	1	-4%	0.0	-2	·	·	·
O=S(=O)(NCC(c1ccco1)N1CCCCC1)c1ccccc1C(F)(F)F (stereo unspecified)	·	·	·	·	9%	-1.0	1	·	-1.7	·
Oc1ccc(N=Nc2n[nH]c(-c3ccc(Cl)cc3)n2)cc1	-18*	4	?	2	-1%	-1.2	-5	1.5*	6.7	-5.1*
CCC(=O)N1c2ccccc2-c2nnc(SC)nc2OC1c1ccc(OC)c(OC)c1 (stereo unspecified)	2	-9	2.1	28	1%	0.8	-4	6	-2.6	-0.3
Nc1nc(NCCO)nc(NC2CCCCC2)c1[N+](=O)[O-]	-16	-38	1.7	1	-2%	-0.1	1	-26	1.6	0.0
O=C(O)Cc1sc(NCCc2ccccc2)nc1-c1ccc(F)cc1	-16	-4	-1.5	-6	·	-0.6	0	-11	5.9	7.8
O=C(O)c1ccc(/C=N/Nc2nnnn2-c2ccccc2)cc1	·	-15	-4.5	-8	·	1.4	0	·	·	·
O=C(Cn1cc(C(F)(F)F)cc(Cl)c1=O)NCC1COc2ccccc2O1 (stereo unspecified)	18	·	·	·	·	-0.5	-5	4	-4.3	1.0
Cc1ccc(-n2nc3ccc(NC(=O)C(C)C)cc3n2)cc1	6	-1	-3.1	1	·	-2.6	3	5	-3.7	-1.3
CCOC(=O)c1cn2nc(Oc3ccc(C)cc3)ccc2n1	10	-14	4.2	2	·	1.5	-2	-11	1.5	1.5
CC(=O)OC1=C(C#N)Cn2ccc3cccc1c32	·	4	?	4	?	-0.7	-4	·	·	·
CCOC(=O)N1CCN(C(=O)c2ccc(N(C)S(C)(=O)=O)cc2)CC1	·	-1	-2.3	-1	-1%	-0.1	-3	·	·	·
C=COC(=O)CSc1nc(-c2cccs2)ccc1C#N	12	·	·	·	-4%	-0.2	-6	6	1.9	-2.2
Cc1[nH]c(-c2ccc(F)cc2)cc1C(=O)N1CCN(c2ccccc2F)CC1	-11	13	5.8	1	-10%	-1.0	-10	-5	5.1	13
CCc1nnc2n1N=C(c1ccc(-c3cc(Cl)ccc3Cl)o1)CS2	·	28	3.4	27	6%	0.8	13	·	·	·
CCOC(=O)c1ccc(N2C=C(C(=O)OC)C(c3ccc(OC)c(O)c3)C(C(=O)OC)=C2)cc1	7	9	3.9	8	·	-0.2	2	5	-3.2	-1.5
COC(=O)c1cc(NC(=S)Nc2cc(Cl)cc(Cl)c2)cc(C(=O)OC)c1	-2	21	5.5	-50	1%	0.2	-13	-6	-1.1	-1.3
COc1ccccc1NC(=O)C1C2C=CC(C2)C1C(=O)NCc1cccnc1 (stereo unspecified)	11	0	?	-5	·	0.4	-1	10	-8.3	-1.9
Cc1cnc(NC(=O)C2CCC(C(C)(C)C)CC2)s1 (stereo unspecified)	4	-2	-0.9	2	-2%	-0.5	-2	9	-3.7	0.3
c1ccc2sc(Cc3nnc4n3CCCCC4)nc2c1	·	-1	-0.5	2	15%	0.0	-2	·	·	·
Clc1ccc(N2CCOCC2)nn1	9	-12	0.4	-4	15%	-0.5	-10	2	0.1	-1.5
Cc1cc(C)c2cc(CN(CCN(C)C)C(=O)Nc3ccccc3Cl)c(=O)[nH]c2c1	-5	30	?	-5	6%	0.8	-2	-11	3.4	1.5
Cc1cc(-n2c(C)c3c(C)nnc(C)c3c2C)ccc1N	·	17	2.0	9	15%	0.1	-4	·	7.0	·
C=CCn1c(SCC(=O)NCc2ccco2)nnc1C1CCCCC1	-5	-10	5.2	3	-4%	-0.8	0	-2	1.4	-3.5
O=C(CN1CCSCC1)N/N=C/c1ccc(Cl)cc1	12	-9	-2.2	-2	·	-0.2	-5	0	-1.6	-7.0
CC(C)(C)N(Cc1cc2ccccc2[nH]c1=O)C(=O)c1cccc([N+](=O)[O-])c1	16	1	5.7	13	6%	-0.3	-6	10	-22	3.9
COCCn1c(-c2ccc(C)cc2)nc2oc3cc(OC)ccc3c(=O)c2c1=O	3	12	2.2	-3	·	1.4	-5	-1	1.9	1.5
O=[N+]([O-])c1cccc(-c2nnc(CNC3CC3)o2)c1	14	-17	1.4	-1	-4%	0.2	-1	-2	0.4	-2.0
Cc1cccn2c(=O)c3cc(C(=O)NCCc4ccccc4)c(=N)n(CC4CCCO4)c3nc12 (stereo unspecified)	0	32	181*	10	·	-0.1	6	0	-4.2	-2.2
Cc1cc(N2CCC(C(=O)NCC3CC3)CC2)nc(-c2ccccc2)n1	·	-2	11	-10	-4%	0.0	1	·	·	·
CC(C)[C@H](NC(=O)C1(c2ccccc2)CCN(C(=O)OC(C)(C)C)CC1)C(=O)O	·	-23	2.7	-3	-2%	0.1	6	·	·	·
C=CCN(CC=C)Cc1nc(N)nc(Nc2ccccc2C)n1	12	-8	4.7	4	29%	0.6	-2	6	1.5	3.4
O=C(CCC1CCCN(C(=O)c2ccsc2)C1)NCc1ccc(F)c(F)c1 (stereo unspecified)	·	12	0.8	-7	?	0.1	·	·	-1.4	·
CC1CCC(NC(=O)c2cccc(S(=O)(=O)NCc3ccccc3)c2)CC1 (stereo unspecified)	-20	11	2.0	5	-4%	0.3	3	-16	0.5	-2.4
O=C(NCCCN1CCOCC1)C(=O)N/N=C/c1ccccc1Cl	8	-2	0.0	10	3%	-0.9	4	7	·	0.0
CNC(=O)COC(=O)c1ccccc1NC(=O)c1ccco1	-8	3	-0.5	3	28%	0.7	3	-2	-1.5	-1.5
O=C(O)c1nn(CCOc2c(Cl)cccc2Cl)c(=O)c2ccccc12	7	-12	5.9	10	·	-1.2	1	16	0.0	-0.1
O=C(N=C1SC2CS(=O)(=O)CC2N1c1ccc(Br)cc1F)C1CC1 (stereo unspecified)	3	0	7.2	-4	-13%	1.3	-6	1	-1.0	-2.8
CCCN1C(=O)/C(=c2\s/c(=C3\C=Cc4ccccc4N3CC)c(=O)n2-c2ccccc2)SC1=S	·	-3	?	-7	·	0.6	1	·	·	·
Fc1ccc(C2CC(c3ccc(F)cc3)n3ncnc3N2)cc1 (stereo unspecified)	·	-9	0.7	-1	21%	-0.1	1	·	·	·

Grouped by structure: those above containing a nitro group on carbon
molecule	rRNA inh HTS	T cruzi repl	RanGTP-Impb inh	Calb FLC	Vif A3G	A1 inh	Beta cell apopt	rRNA inh HTS OD600	AF4-AF9 inh	rRNA inh HTS RFP
C=CCn1c(SCC(=O)NC(=O)c2cccc([N+](=O)[O-])c2)nnc1-c1ccccc1F	·	1	-7.0	-3	12%	1.1	-11	·	·	·
Nc1nc(NCCO)nc(NC2CCCCC2)c1[N+](=O)[O-]	-16	-38	1.7	1	-2%	-0.1	1	-26	1.6	0.0
CC(C)(C)N(Cc1cc2ccccc2[nH]c1=O)C(=O)c1cccc([N+](=O)[O-])c1	16	1	5.7	13	6%	-0.3	-6	10	-22	3.9
O=[N+]([O-])c1cccc(-c2nnc(CNC3CC3)o2)c1	14	-17	1.4	-1	-4%	0.2	-1	-2	0.4	-2.0
